Ecoli growth: E. coli growth inhibition. Escherichia coli growth, OD600, 23 h; stronger effect = lower value. OD600 absorbance (no concentration beside the values). actives 0.21% (n = 330,000);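 active means OD600 absorbance below the run mean of sample wells minus 3.6 SD, in any replicate, cut at about 0.56 in these data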;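 further: stock transfer was 300 nL into about 60 µL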
Ecoli rRNA inh: inhibits bacterial ribosomal RNA function over humanized ribosomes; E. coli WT GFP vs humanized-ribosome RFP mutants, fluorescence, 24 h; stronger effect = lower value; DMSO median 0, no signal -100; GFP signal change (wild-type ribosome), % (test concentration not listed); actives 1.6% (n = 350,000); AID 720706;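 active means significant combined selectivity score with lowered wild-type GFP, culture density cut under 30%, mutant RFP and density less affected; inactive means any of these conditions unmet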; further: one replicate is shown; some compounds called inactive have numbers as strong as hits
ALR H2O2 inh: human ALR oxidase inhibition via reduced H2O2 | P55789 | purified ALR, DTT oxidation, H2O2 HRP-luminol luminescence | inhibition, % (no concentration beside the values) | actives 3.8% (n = 290,000);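 active means mean and each replicate at 75% or more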;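 further: stock transfer was 7.5 nL into about 7.5 µL; 0% = neutral wells and 100% = wells with inactivated enzyme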
B2AR ag: human beta-2 adrenergic receptor agonism by FAP; P07550; Am2.2-beta2AR cells, FAP receptor internalization, flow cytometry; reference of the scale not given here; response, % (no concentration beside the values); actives 0.43% (n = 340,000); AID 504454;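 active means response above a set limit, near 3 SD of response in nonfluorescent compounds, cut at about 42% in these data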;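 further: stock transfer was 100 nL into about 11 µL; a reference agonist was the positive control; negative values mostly stem from fluorescent compounds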
Target sequence (P07550 whole entry, looked up): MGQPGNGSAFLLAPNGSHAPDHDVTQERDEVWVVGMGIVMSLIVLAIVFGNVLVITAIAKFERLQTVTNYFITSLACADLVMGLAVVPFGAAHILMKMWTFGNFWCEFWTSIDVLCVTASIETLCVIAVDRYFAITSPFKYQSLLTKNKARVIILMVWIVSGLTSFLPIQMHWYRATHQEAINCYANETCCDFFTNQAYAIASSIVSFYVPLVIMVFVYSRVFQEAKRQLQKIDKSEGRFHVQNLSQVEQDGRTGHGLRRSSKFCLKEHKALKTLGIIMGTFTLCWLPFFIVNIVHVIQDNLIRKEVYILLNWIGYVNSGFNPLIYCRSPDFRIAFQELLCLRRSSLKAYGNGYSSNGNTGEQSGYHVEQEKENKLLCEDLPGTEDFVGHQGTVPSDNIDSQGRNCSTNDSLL
HNF4A DNA FP: change in binding of human HNF4 alpha to DNA; P41235; HNF4a-FITC DNA binding, fluorescence polarization, 1 h; activity change, % at 10 µM; actives 0.3% (n = 360,000); in the data active means activity change above about 30%, passing the limit was not always enough;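 further: controls were the assay level and a saturating level of protein; the project sought stronger binding though the title names inhibitors; some compounds called inactive have numbers as strong as hits; positive values seem to mean higher polarization but the record does not say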
UCH37 DUB inh: human UCH37 deubiquitinating enzyme inhibition. Q9Y5K5. purified proteasome/UCH37, Ub-AMC cleavage fluorescence. inhibition, % (concentration not given with the values). actives 0.33% (n = 330,000). AID 588478;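 active means mean of two replicates above 20%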;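 further: 0% = compound-free wells with enzyme and 100% = wells lacking proteasome; stock transfer was 100 nL into about 20 µL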
Target sequence (Q9Y5K5 whole entry, looked up): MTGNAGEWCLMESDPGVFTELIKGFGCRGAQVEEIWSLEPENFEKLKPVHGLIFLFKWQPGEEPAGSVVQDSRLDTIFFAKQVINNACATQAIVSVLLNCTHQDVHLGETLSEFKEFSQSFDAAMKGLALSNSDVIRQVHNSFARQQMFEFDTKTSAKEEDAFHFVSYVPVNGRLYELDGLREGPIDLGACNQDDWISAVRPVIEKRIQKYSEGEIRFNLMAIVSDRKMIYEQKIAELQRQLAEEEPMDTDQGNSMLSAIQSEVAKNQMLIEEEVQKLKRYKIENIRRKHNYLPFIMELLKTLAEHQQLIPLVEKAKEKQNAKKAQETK
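Material: human UCH37 enzyme supplied as purified proteasome complex. Measure: % inhibition of Ub-AMC cleavage fluorescence. Medium: pH 7.4 Tris-HCl (50 mM) with ovalbumin, ATP-MgCl2, DTT. Times: 30 min preincubation with enzyme, 25 min cleavage at room temperature. Detection: AMC fluorescence intensity at 355/460 nm.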
FGF22 binding: binders of recombinant human FGF22 by thermal shift. AID 651658. Q9HCT0. calls only at 9.99 µM. SYPRO orange fluorescence; percent of sucrose octasulfate shift, DMSO zero. actives 1.5% (n = 340,000);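 active means melting point raised past a set limit in the mean and every replicate; three in four hits are not shown here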
Target sequence (Q9HCT0 whole entry, looked up): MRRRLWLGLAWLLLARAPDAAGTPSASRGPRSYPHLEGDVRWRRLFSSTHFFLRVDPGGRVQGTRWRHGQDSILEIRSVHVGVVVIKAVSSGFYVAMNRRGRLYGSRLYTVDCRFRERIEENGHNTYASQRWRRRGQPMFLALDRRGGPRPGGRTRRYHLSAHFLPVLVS
Ecoli rRNA inh OD600: second read-out of Ecoli rRNA inh, no call of its own (marks repeat the call); OD600 change, %; measured here: OD600 growth;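 optical density of the mix in the first replicate; 0 = DMSO median and -100 = no signal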
Ecoli rRNA inh RFP: also measured in Ecoli rRNA inh; calls as there; RFP signal change, %; measured here: RFP humanized mutant strains;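 first replicate; 0 = DMSO median and -100 = no signal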
The depositor's hits bear a star; i = inactive; . = no result given; & = joins results of further samples. Not all compounds are listed; rates above refer to the full screens.

SMILES	Ecoli growth	Ecoli rRNA inh	Ecoli rRNA inh OD600	Ecoli rRNA inh RFP	ALR H2O2 inh	B2AR ag	HNF4A DNA FP	UCH37 DUB inh	FGF22 binding
O=C(COc1ccccc1)Nc1ncc2c(n1)CCCC2=O	0.78	.	.	.	-4	-1	0.0	0.3	.
Nn1c(SCC(=O)NC2CCS(=O)(=O)C2)nnc1-c1ccco1 (stereo not drawn)	0.69	11	16	-1.2	-7	-5	1.1	6.4	i
Cn1c(=O)[nH]c(=O)c2c1nc(N/N=C/C(Br)=C/c1ccccc1)n2CCO	.	0	11	-2.2	20	-10	0.0	.	i
O=C(CNC(=O)c1cccs1)NCC(=O)OCc1ccc(Cl)cc1	0.6	.	.	.	-4	-2	1.1	0.7	.
Cc1ccc(SC2=C(N(C)C)C(=O)c3ccccc3C2=O)cc1	.	-4	-3	17	.	4	-1.5	.	i
COc1cccc(OCC(=O)NNC(=O)c2ccc3ccccc3c2O)c1	0.71	-1	1	-1.0	.	0	4.0	-59	i
C=CCOc1ccc(CNC(C)(C)CO)cc1OCC	0.74	.	.	.	-11	3	1.5	0.9	.
C/C(=N\NC(N)=O)c1c(F)cccc1F	.	.	.	.	.	-10	-0.3	.	i
O=C(NNC(=O)c1ccc(-c2ccc([N+](=O)[O-])cc2)o1)c1ccncc1	0.63	-19	-17	0.5	.	3	0.2	7.8	i
C/C(=N\Nc1nc(C)cc(C)n1)c1ccc(N2CCOCC2)cc1	.	6	3	-1.8	99*	0	3.6	.	i
O=C(CC1C[C@H](C(=O)N2CCCCC2)[C@@]2(CCc3ccccc3)c3[nH]c4ccccc4c3CCN2C1=O)NCCc1ccccn1 (stereo partly drawn)	0.71	1	-4	-3.0	.	7	-1.2	5.2	i
COC(=O)c1c(NC(=O)CC2Nc3ccccc3NC2=O)sc(C)c1C (stereo not drawn)	0.66	8	3	3.0	41	-7	45*	6.2	i
CC1(C)Cc2c(sc(NC(=O)c3ccco3)c2C#N)CO1	0.71	.	.	.	6	-6	-3.9	10	.
CC(=O)N(O)c1ccc(C=Cc2ccccc2)cc1	.	1	-11	-4.6	.	.	1.0	.	i
CCCCn1c(N)c(N(CC(C)C)C(=O)c2cc3ccccc3cc2OC)c(=O)[nH]c1=O	0.68	-9	-11	-3.8	.	-7	4.4	2.0	i
CCOC(=O)c1sc(N)nc1C(F)(F)F	0.67	3	9	1.8	.	-7	1.0	3.1	i
O=c1c2cccnc2[nH]c(=S)n1CCCN1CCN(c2ccccc2F)CC1	0.71	.	.	.	-7	4	0.0	6.5	.
O=C(c1nc2ccc(Cl)cn2c1CN1CCC(CO)CC1)N1CCc2ccccc2C1	0.73	13	4	0.6	-6	-24	1.9	-3.6	i
COc1cc(C(=O)CSc2nnc(-c3ccc(O)cc3)n2CC2CCCO2)ccc1NC(C)=O (stereo not drawn)	0.68	.	.	.	17	5	0.6	4.6	.
Cc1nn(C)c(C(=O)Sc2ccccc2)c1[N+](=O)[O-]	0.68	0	8	-1.2	.	15	3.1	5.2	i

The closing six entries of the part above are carried over, then new ones follow:
SMILES	Ecoli growth	Ecoli rRNA inh	Ecoli rRNA inh OD600	Ecoli rRNA inh RFP	ALR H2O2 inh	B2AR ag	HNF4A DNA FP	UCH37 DUB inh	FGF22 binding
CCCCn1c(N)c(N(CC(C)C)C(=O)c2cc3ccccc3cc2OC)c(=O)[nH]c1=O	0.68	-9	-11	-3.8	.	-7	4.4	2.0	i
CCOC(=O)c1sc(N)nc1C(F)(F)F	0.67	3	9	1.8	.	-7	1.0	3.1	i
O=c1c2cccnc2[nH]c(=S)n1CCCN1CCN(c2ccccc2F)CC1	0.71	.	.	.	-7	4	0.0	6.5	.
O=C(c1nc2ccc(Cl)cn2c1CN1CCC(CO)CC1)N1CCc2ccccc2C1	0.73	13	4	0.6	-6	-24	1.9	-3.6	i
COc1cc(C(=O)CSc2nnc(-c3ccc(O)cc3)n2CC2CCCO2)ccc1NC(C)=O (stereo not drawn)	0.68	.	.	.	17	5	0.6	4.6	.
Cc1nn(C)c(C(=O)Sc2ccccc2)c1[N+](=O)[O-]	0.68	0	8	-1.2	.	15	3.1	5.2	i
COc1ccc(CNC(=O)CSc2ncnc3ccccc23)cc1OC	0.63	2	9	-1.9	89*	0	3.0	-0.2	i
COC(=O)CSc1ncnc2c1cnn2Cc1ccccc1	0.76	.	.	.	-5	-17	2.0	-3.2	.
Cc1oc(-c2ccccc2Cl)nc1CS(=O)CC(=O)N1CCN(c2ccccc2)CC1 (stereo not drawn)	0.68	-17	-33	1.0	99*	-8	0.8	-0.1	i
Cc1ccc(C2(CC(=O)N3CCCC3)CCOC(C(C)C)C2)cc1 (stereo not drawn)	0.66	.	.	.	-21	0	-2.7	3.8	.
COc1cc2c(cc1OC)C(c1cccs1)N(C(=O)c1ccc(S(=O)(=O)N(C)C)cc1)CC2 (stereo not drawn)	0.68	-19	-22	-0.9	-31	9	-2.0	1.5	i
O=C(NCc1ccc(Cl)cc1)c1ccc(NC(=O)C2CCCO2)cc1 (stereo not drawn)	0.67	-1	0	0.0	0	-7	0.4	6.7	i
Cc1nc(N/N=C/c2cccc([N+](=O)[O-])c2)cc(N2CCCCC2)n1	.	0	6	-1.6	.	.	-4.1	.	i
CC1CCC(NC(=O)c2ccc(NC(=O)c3ccc(=O)[nH]c3)cc2)CC1 (stereo not drawn)	0.74	.	.	.	-1	.	.	4.6	.
COc1ccc(/C=C(/NC(=O)c2ccccc2)C(=O)N2CCC(C)CC2)cc1	0.67	-4	-6	3.0	1	1	2.1	1.7	i
Clc1ccccc1-c1nc(-c2ccncc2)no1	0.68&0.63	-12&-19	-9&-22	-3.3&-1.2	-15&3	4&-2	-3.6&-2.6	4.2&1.3	i
COc1ccc(Nc2nc(NC(C)C)nc3ccsc23)cc1OC	.	-7	-24	-4.6	.	.	1.8	.	i
CN(C(=O)c1cccc(NC(=O)Cc2ccc(NC(=O)C3CCCN(C(=O)c4ccccc4)C3)cc2)c1)C1CCCCC1 (stereo not drawn)	0.7	5	-2	-2.9	.	6	2.9	0.4	.
CCN=C(NC#N)SCc1c(F)cccc1Cl	0.68	7	-1	-5.4	6	7	0.0	-0.2	i
Cc1ccc2[nH]c3c(c2c1)CCN1C(=O)OC(C)(C)C31C (stereo not drawn)	0.68	-4	-2	-2.7	2	-1	2.2	4.4	i
COc1ccc(Br)cc1CNC(=O)CCc1nc(-c2ccc(C)cc2)no1	0.8	.	.	.	-1	-7	0.9	-0.1	.
Cc1[nH]n(-c2ccccc2)c(=O)c1S(=O)(=O)c1ccccc1	0.75	.	.	.	-35	2	2.1	2.3	.
CCOc1cc(/C=C2/SC(=S)N(CC(=O)O)C2=O)ccc1OC(=O)c1cccs1	0.71	-10	-10	3.9	.	-1	13	11	i
COc1ccccc1CNC(=O)c1c(-c2ccccc2Cl)noc1C	0.7	-9	-10	-1.6	-26	-3	1.5	2.3	i
CC(C)C(c1nnnn1Cc1ccc(F)cc1)N1CCN(C(=O)c2ccco2)CC1 (stereo not drawn)	0.77	.	.	.	-6	-21	-0.1	5.7	.
Cc1cc(=O)oc2cc(OCCSCCN3CCCCC3)ccc12	0.6	6	-8	2.7	99*	4	0.9	-29	i
Cc1cc(C)nc(SCc2nnc(SCC(=O)Nc3nc(-c4ccccc4)cs3)n2C)n1	0.69	.	.	.	-9	-4	-1.4	0.1	.
O=C1OCc2cccc3cccc1c23	0.67	.	.	.	-96	4	-0.7	-303	.
CCNC(=O)c1cc(S(=O)(=O)N(C)C)c(Cl)cc1Cl	0.66	20	23	-1.4	-15	-5	-2.5	3.2	i
Cc1ccc(-c2nn(CC(=O)O)c(=O)c3ccccc23)cc1	0.71	.	.	.	-2	4	-3.1	2.2	.
c1ccc(Cc2nnc(N3CCCCC3)c3ccccc23)cc1	0.64	-44	-63	-10	-3	-7	1.6	-0.5	i
Oc1ccc(/C=N/Nc2ccnc3cc(Cl)ccc23)c(O)c1	.	-33*	7.0*	12*	-2	6	40	.	i
COC(=O)c1sc(-c2ccc(Cl)cc2)cc1NC(=O)COCC(=O)O	0.7	-44	-48	-5.4	49	1	3.6	-0.4	.
COCCCNC(=S)Nc1ccc2nc(N3CCOCC3)cc(C)c2c1	0.68	-18	-15	-3.5	69	4	7.2	-97	i
CC(C)(C)c1ccc(C(=O)NCC(=O)OCC(=O)Nc2ccccc2[N+](=O)[O-])cc1	0.73	.	.	.	-3	-50	0.5	1.4	.
Cc1ccc(CN2CCNC(=O)C2CC(=O)NCC(F)(F)F)o1 (stereo not drawn)	0.7	13	13	-0.5	-6	2	-4.4	0.6	i
CCN(C[C@H]1N[C@@](CC)(C(=O)OC)[C@H]2C(=O)N(C)C(=O)[C@@H]12)S(=O)(=O)c1ccccc1	0.72	7	3	0.2	.	-9	1.3	5.1	i
CCCCOc1ccc(C(C)NC(=O)C2CCCN(S(=O)(=O)CC)C2)cc1 (stereo not drawn)	0.69	.	.	.	.	-17	0.0	4.7	.
Cc1ccc(C2Nc3ccccc3NC3=C2C(=O)OC(C)C3)cc1 (stereo not drawn)	0.66	0	-3	-1.8	99*	3	0.9	3.0	i
c1ccc2c(C3=NNC(=NC4CCCCC4)SC3)c[nH]c2c1	0.67	-34*	-26*	-2.6*	15	9	1.1	2.1	i
O=C(NNc1nc(=O)c2cccnc2s1)c1ccccc1O	0.7	23	10	-1.4	22	3	-4.8	13	i
N/C(=N\OC(=O)/C=C/c1ccc(Br)cc1)c1ccccn1	0.72	.	.	.	-4	18	0.1	6.0	.
O=C(Cc1ccccc1)Nc1ccccc1CO	0.69	.	.	.	-4	4	-2.7	5.8	.
CCOC(=O)c1c(C)[nH]c(C(=O)OCC(=O)Nc2cc(C)ccc2OC)c1C	0.74	.	.	.	-2	-16	2.6	1.4	.
Cc1cnc(NC(=O)CSc2ncn(-c3ccccc3)n2)s1	0.69	.	.	.	-7	-21	-0.8	5.8	.
O=C(CCNC(=O)OCC1c2ccccc2-c2ccccc21)NOCc1ccccc1	0.72	-1	6	-0.6	.	0	2.1	-0.6	i
CCNC(=O)/C(C#N)=C/c1c(N2CCCCCC2)nc2c(C)cccn2c1=O	0.66	-32	-61	0.9	19	-5	3.6	6.7	i
O=C(COC(=O)C1(c2ccccc2)CC1)N1CCN(c2ccc(F)cc2)CC1	0.73	.	.	.	8	-2	1.7	5.2	.
COc1cc2c(cc1NC(=O)C(C)Sc1ccc(C)cc1)oc1ccccc12 (stereo not drawn)	0.71	26	15	7.0	-9	2	2.2	1.8	i
O=c1c2ccccc2oc2cc(Br)ccc12	0.65	-3	-4	-0.8	.	-6	-0.4	0.3	i
CSCCC(NC(=O)c1ccccc1Cl)C(=O)N1CCCCCCC1 (stereo not drawn)	0.72	-3	-5	-2.4	-2	6	3.0	-2.6	i
N#Cc1cc2c(nc1SCC(=O)Nc1sc3c(c1C#N)CCC3)CCCCCC2	0.7	.	.	.	.	-6	2.2	-0.3	.
O=C(NCc1n[nH]c(=S)n1-c1ccc(Cl)c(Cl)c1)c1ccc(S(=O)(=O)N2CCOCC2)cc1	0.69	1	-5	0.3	.	-2	-1.6	1.1	i
COc1ccc2cc(CN(CCO)C(=O)c3ccccc3F)c(=O)[nH]c2c1	0.75	.	.	.	-1	5	0.2	-2.9	.
COc1ccc(NC(=O)COc2cc(O)c3c(c2)OC(C)(C)CC3=O)cc1	0.7	.	.	.	15	8	1.9	6.3	i

Screening results (PubChem)
